High-throughput results deposited in PubChem BioAssay by National Center for Advancing Translational Sciences (NCATS).
VACV mCherry inh = inhibitors of vaccinia virus infection (mCherry reporter signal). Vaccinia virus mCherry reporter infection, fluorescence; about a quarter of the inactives have no number. Potency, µM (highest dose often 36.5 µM), without a hit: at the top dose activity change, negative = inhibition, most hits filed as inhibitors. hit rate 0.63% among 310,000. AID 720579; active = well fitted inhibition curve with a large enough effect; inconclusive = small, poorly fitted or top-dose-only effect; inactive = no such curve, though single readings can be large or run the other way; tested in A549 cells; note: nearly all actives have a fitted effect of over 35% in size; inactives centre near -10
Vaccinia Venus = inhibitors of vaccinia virus (Venus reporter). AID 720580. hit rate 0.46% among 330,000. Potency, µM (titrated, usually from 36.5 µM), without a hit: at the top dose activity change, negative = inhibition, actives largely listed as inhibitors. Vaccinia virus Venus reporter expression, fluorescence; active means well fitted inhibition curve with a large enough effect; inconclusive means small, poorly fitted or top-dose-only effect; inactive means no such curve, though single readings can be large or run the other way; tested in A549 cells; note: nearly all actives have a fitted effect of over 30% in size; inactives centre near -10
The depositor's hits bear a star; i = inactive; ? = inconclusive; . = no result given; [ ] = remark or other dose. % is set by controls: 0 for no effect and ±100 for the full control effect; potency is the fitted concentration of half-maximal effect.

SMILES	VACV mCherry inh	Vaccinia Venus
COc1ccc(CNC(=O)CNS(=O)(=O)c2cccs2)cc1	13%	-1%
COc1ccc(-c2nc(CSCC(=O)N3CCN(c4cccc(C)c4C)CC3)c(C)o2)cc1OC	11µM*	11µM*
NS(=O)(=O)c1cccc(NC(=O)COc2ccc([N+](=O)[O-])cc2)c1	-14%	-11%
CCOc1ccc(S(=O)(=O)c2c(C(=O)c3ccccc3)cnc3cc4c(cc23)OCCO4)cc1	?	-19%
COc1ccc(OC)c(-c2noc(N3CCN(c4cccc(C)c4C)CC3)n2)c1	-8%	-15%
CCOC(=O)c1cn2nc(Oc3ccc(NC(C)=O)cc3)ccc2n1	-12%	-14%
Oc1ccc(N2CCN(Cc3nc4ccccc4[nH]3)CC2)cc1	?	8%
O=S(=O)(CCc1nnc(-c2ccc(Br)cc2)o1)c1ccc(Cl)cc1	.	?
Clc1ccccc1Cc1noc(CN2CCN(Cc3ccccn3)CC2)n1	-7%	-3%
COCCCNc1nnc(Cc2ccccc2)c2ccccc12	-6%	-20%
COc1ccc(OCC(=O)Nc2nnc(S(=O)(=O)N3CCc4ccccc43)s2)cc1	-19%	-11%
Cc1ccc(NC(=O)COC(=O)/C=C/c2cccc(Cl)c2)cc1S(=O)(=O)N1CCOCC1	-15%	-12%
O=C(c1cccs1)N(Cc1cccnc1)c1nc2ccc(F)cc2s1	-9%	-21%
CCCCOC(=O)C1=C(N)OC2=C(C(=O)CCC2)[C@]12C(=O)N(C)c1ccccc12	.	-28%
CC1(OC(=O)c2cccs2)C(=O)C=C2C=C(C3CC3)OC=C2C1=O (stereo not drawn)	-16%	13%
CCOC(=O)Cc1csc(SCC(=O)NC2CCCCC2)n1	i	-21%
COc1ccc(N(CC(=O)Nc2ccc(C)c(C)c2)C2=NC3CS(=O)(=O)CC3S2)cc1 (stereo not drawn)	-5%	-18%
CC(=O)c1cccc(NC(=O)c2noc3c2CSc2ccccc2-3)c1	?	?
Cc1c(C(=O)NNC(=O)Nc2ccc([N+](=O)[O-])cc2)oc2ccccc12	-6%	?
COc1ccc(C(=O)NC(=S)Nc2ccc(Cl)c(C(=O)O)c2)cc1	i	-9%
COc1ccc(C(=O)N2CCN(c3ccccn3)CC2)cc1[N+](=O)[O-]	i	-7%
O=C(C[n+]1cc(Br)cc(Br)c1)c1ccc(I)cc1	-23%	12%
CCOc1cc2[nH]c(=O)n(Cc3ccc(C(=O)NCCCN4CCCC4=O)cc3)c(=O)c2cc1OCC	i	-9%
CCOc1ccccc1C(=O)NCc1ccco1	3%	0%

2 of the compounds above, with bars between the fields.
mol | VACV mCherry inh | Vaccinia Venus
CC(=O)c1cccc(NC(=O)c2noc3c2CSc2ccccc2-3)c1 | ? | ?
COc1ccc(C(=O)N2CCN(c3ccccn3)CC2)cc1[N+](=O)[O-] | i | -7%

More compounds.
SMILES	VACV mCherry inh	Vaccinia Venus
N#C/C(=C\c1ccccn1)c1ccccn1	3.5µM*	?
O=C(Nc1cc([N+](=O)[O-])ccc1O)c1cccc(NC(=O)c2ccco2)c1	-16%	-6%
Cc1coc2cc3oc(=O)c(CCC(=O)NCc4ccc(Cl)cc4)c(C)c3cc12	-14%	-14%
N#Cc1c2ncn(CC(=O)c3ccc(Br)cc3)c(=O)c2c2n1CCC2	.	-15%
O=C(C[C@H]1C/C=C\C[C@H](Cc2ccc(F)cc2)C(=O)O[C@@H](c2ccccc2)CNC1=O)NCCO	i	-10%
CC(=O)C1C(c2ccc(O)cc2)NC(=O)NC1(O)C(F)(F)F (stereo not drawn)	-3%	-7%
CC(=O)c1cccc(NC(=O)Cn2cnc(S(=O)(=O)N3CCOCC3)c2)c1	i	-9%
CN1CCN(c2ccc(C(=O)NC3CCCCC3)cc2[N+](=O)[O-])CC1	5%	-11%
CC(OC(=O)c1cccc(S(=O)(=O)N2CCOCC2)c1)C(=O)NCC1CCCCC1 (stereo not drawn)	-4%	-11%
COc1cc(NC(C)=O)ccc1-c1cc2ccccc2oc1=O	-15%	-9%
Cc1ccc(C)c(NC(=O)CSc2nnc(C)c(=O)n2N)c1	-5%	-5%
CN(C)[C@H]1CCN([C@H]2CS(=O)(=O)N[C@@H]2COCc2ccccc2)C1	i	-4%
Cc1cc(NC(=O)CN(C)S(=O)(=O)c2cccc(Cl)c2)no1	-10%	-8%
CC(C)Cc1c2c([nH]c(=S)c1C#N)CCCC2	-5%	0%
CC(=O)NC(Cc1ccc(C(C)C)cc1)C(=O)NC1CCN(C(=O)c2cccc(C)c2)CC1 (stereo not drawn)	i	-13%
COc1cc(C(N)=O)ccc1OCc1ccccc1	-13%	-8%
Cc1ncc(S(=O)(=O)c2ccccc2)c(-c2ccccc2Cl)n1	-22%	-13%
COc1ccc(C(=O)N2CCN(Cc3ccc(OC)c(OC)c3)CC2)cc1	i	-5%
CCc1nc2ccc(C(=O)N3CCN(C(C)=O)CC3)cn2c1N(C)C(=O)c1cccc(OC)c1	14%	-6%
Cc1nc2ccc(NC(=S)NCc3ccccc3)cc2nc1C	i	-14%
CCOC(=O)c1cnc2c(OC)cccc2c1N1CCN(c2ccc(OC)cc2)CC1	?	-28%
COc1ccc(Cl)cc1S(=O)(=O)NC(C)C(=O)NCCCn1ccnc1 (stereo not drawn)	i	-6%
CCOc1cc(C(=O)NCCc2sc(-c3ccc(F)cc3)nc2C)cc(OCC)c1OCC	6%	-8%
CCCN(Cc1cccs1)C(=O)Nc1cc(OC)ccc1OC	-1%	-14%
CC(=O)N1c2ccc(S(=O)(=O)N3CCCCCC3)cc2CC1C(=O)NC(C)C (stereo not drawn)	-5%	6%
COc1ccc(N2CCN(CC(O)COC(c3ccccc3)c3ccccc3)CC2)cc1 (stereo not drawn)	?	-6%
CCCn1c(SCC(=O)NC2CCCc3ccccc32)n[nH]c1=O (stereo not drawn)	-15%	-4%
O=C(O)c1ccc2c(=O)[nH]c(CN3CCOCC3)nc2c1	i	-7%
CCOc1ccc(CCNC(=O)COC(=O)CNS(=O)(=O)c2ccc(C)cc2)cc1OCC	-17%	-13%
CN(C)CCC1CCN(c2cc(C#N)c(C#N)cc2[N+](=O)[O-])CC1	5%	-4%
CCc1nc2ccc(C(=O)NCCN3CCNC3=O)cn2c1N(CCC(C)C)CCN(C)C	-5%	0%
N#CC(C#N)=C1NC2(CCCC2)Cc2ccccc21	-8%	-7%
C[C@@H]1[C@H]2CCCC[C@H]2CN(C(=O)OC(C)(C)C)[C@@H]1c1cn(Cc2ccccc2)c2ccc(F)cc12	-8%	-13%
CN1C(=O)[C@@H]2[C@H](C1=O)[C@@H]1C(=O)Nc3ccccc3C(=O)N1[C@@H]2c1ccc(F)cc1	-14%	-9%
O=C(CCS(=O)(=O)c1ccc(Br)s1)Nc1cc(C(F)(F)F)cc(C(F)(F)F)c1	13µM*	?
O=[N+]([O-])c1cc(-c2nc(-c3ccco3)no2)ccc1NCc1ccccc1	-7%	-5%
C=CCn1c(SCC(=O)N2CCN(CCO)CC2)nc2sc3c(c2c1=O)CCC3	-18%	-21%
COc1ccccc1/C=C/C(=O)N1CCC(c2ccccc2)C1 (stereo not drawn)	-2%	-28%
CC1(C)C(=O)Nc2ccccc2N1C(=O)CSc1nnc2ccccn12	i	-4%
Cc1noc(C)c1-c1ccc(C(=O)Nc2ccc(C(C)C)cc2)c2occc12	9%	-13%
CCNCc1cc(Cl)c(OCc2ccccc2)c(OCC)c1	-21%	-29%
Fc1ccc(CNc2nc(-c3ccccc3)nc3ccccc23)cc1	-21%	-5%
Cn1c(=O)n(C)c2cc(S(=O)(=O)NCc3ccccc3)ccc21	.	-12%
CCN(CC)C(=O)[C@H]1CC(CC(=O)NCCCOC)C(=O)N2CCc3c([nH]c4ccccc34)[C@]12C (stereo partly drawn)	-14%	0%
CCOc1ccc(C2/C(=C(\O)c3ccc4c(c3)OCCO4)C(=O)C(=O)N2CCCN2CCOCC2)cc1 (stereo not drawn)	i	-13%
COc1ccc2c(c1)O[C@H](c1ccc3c(c1)OCO3)[C@@H](O)C2=O	?	-12%
O=C(Nc1ccccc1N1CCOCC1)c1ccc([N+](=O)[O-])s1	4.5µM*	7.9µM*
O=C(COC(=O)/C=C/c1cccs1)Nc1ccccc1Cl	i	-15%

Part of the list above, with two lines to a compound:
Sequence of screens – VACV mCherry inh, Vaccinia Venus
O=C(Nc1cc([N+](=O)[O-])ccc1O)c1cccc(NC(=O)c2ccco2)c1
→ -16%, -6%
COc1ccc2c(c1)O[C@H](c1ccc3c(c1)OCO3)[C@@H](O)C2=O
→ ?, -12%
CCOC(=O)Cc1csc(SCC(=O)NC2CCCCC2)n1
→ i, -21%

The list continues.
SMILES	VACV mCherry inh	Vaccinia Venus
Cn1c(NC(=O)Cc2cccc3ccccc23)cc(=O)n(C)c1=O	i	-7%
Cc1cc(C)nc(N2C(=O)CC(Cc3ccc(Cl)cc3)C2=O)n1 (stereo not drawn)	i	-6%
CCCCCCCCNS(=O)(=O)CCNCc1ccccc1OC	-25%	?
CCC1=Nc2cc(C(=O)NC3CCC(C)CC3)ccc2Sc2ccc(C)cc21 (stereo not drawn)	?	?
O=C(CCc1nc2ccccc2[nH]1)NCc1ccc2c(c1)OCO2	-11%	-5%
COCCSc1ccccc1C(=O)NCc1cccnc1	-17%	-10%
Cn1c(Oc2ccccc2)nc2c1c(=O)n(Cc1ccc(Cl)cc1Cl)c(=O)n2C	-4%	2%
CCn1c(C)cc(/C=C2/SC(=S)NC2=O)c1C	-8%	-4%
Cc1cccc(N(C)C(=O)Cn2c(=O)oc3cc(S(=O)(=O)N4CCCCC4)ccc32)c1	-5%	-10%
CCOc1cccc2sc(N(CCCN(C)C)C(=O)c3ccc(S(=O)(=O)N4CCCCCC4)cc3)nc12	-25%	?
CSCCC(c1nnnn1C1CCCC1)N1CCC2(CC1)C(=O)NCN2c1ccccc1 (stereo not drawn)	4%	3%
COc1ccc(-c2noc(C3CC(=O)N(c4ccc5c(c4)OCCO5)C3)n2)c(OC)c1 (stereo not drawn)	8%	-1%
COc1ccc(/C=N/NC(=O)c2ccc(CSc3nncn3C)cc2)cc1OC	i	-19%
N#CC1(c2ccc(NC(=O)c3ccccc3F)cc2)CCCC1	-12%	-21%
Cc1c(C)n(CCC(=O)O)c2ccccc12	i	0%
CC(=O)CC(C)(C)S(=O)(=O)c1ccc(Oc2ccc(S(=O)(=O)C(C)(C)CC(C)=O)cc2)cc1	.	-16%
CN(C(=O)CC1C(=O)NCCN1C/C=C/c1ccccc1)C1CCOCC1 (stereo not drawn)	i	-8%
Oc1ccc(/C=N/Nc2nc(-c3cccnc3)nc3ccccc23)c(O)c1	?	-8%
O=C(NCCCNC(=O)c1cnccn1)c1ccc(Cl)cc1	-8%	0%
CC(=O)O[C@]1(C(C)=O)CC[C@H]2[C@@H]3C=C(C)C4=CC(=O)CC[C@]4(C)[C@H]3CC[C@@]21C	-14%	-23%
COc1ccccc1N1CCN(C(=O)c2ccc(N(C)S(=O)(=O)c3ccccc3)cc2)CC1	-4%	-9%
CC(C)c1ccc(NC(=O)N2CCc3ccccc3C2)cc1	i	-20%
O=C(c1ccc2c(c1)OCO2)N1CCN(c2cccc(C(F)(F)F)c2)CC1	-23%	?
COc1cc(/C=C/C(=O)O)cc(OC)c1	-11%	-6%

4 structures already listed, ordered by molar mass, smallest number first.
SMILES	VACV mCherry inh	Vaccinia Venus
Cc1c(C)n(CCC(=O)O)c2ccccc12	i	0%
COc1ccc(/C=N/NC(=O)c2ccc(CSc3nncn3C)cc2)cc1OC	i	-19%
COc1ccccc1N1CCN(C(=O)c2ccc(N(C)S(=O)(=O)c3ccccc3)cc2)CC1	-4%	-9%
CC(=O)CC(C)(C)S(=O)(=O)c1ccc(Oc2ccc(S(=O)(=O)C(C)(C)CC(C)=O)cc2)cc1	.	-16%

Remaining list, next part.
SMILES	VACV mCherry inh	Vaccinia Venus
Cc1ccc2[nH]c(CNC(=O)C3CCCCC3)cc2c1	-13%	-3%
COc1ccc([N+](=O)[O-])cc1NC(=O)C1(c2ccccc2)CCOCC1	-28%	-13%
CCC(C)NC(=O)c1ccccc1-c1ccccc1C(=O)NC(C)CC (stereo not drawn)	4%	-8%
COc1ccc(-n2ncc3c(NCC(C)C)ncnc32)cc1	.	?
CCOC(=O)c1cn(CC)c2cc(N3CCOCC3)c(F)cc2c1=O	.	-16%
COc1cc(C2NC(=O)c3c(sc4c3CCN(C)C4)N2)ccc1OC(=O)c1ccccc1 (stereo not drawn)	-13%	-13%
Cc1ccc(-c2cc(-c3n[nH]c(=S)n3C)c3ccccc3n2)cc1	-10%	-26%
COc1ccccc1CN1[C@@H](CC(C)=O)c2cc(C(F)(F)F)ccc2S1(=O)=O	-12%	-11%
CCCN1CN=C(NS(=O)(=O)c2ccc(NC(C)=O)cc2)NC1	i	-3%
CCOC(=O)[C@]12CCCC=C1N(Cc1ccc(Cl)cc1Cl)C(=O)[C@H](CC(=O)N1CCSCC1)C2	47%[activator]	5%
C/C(=N\Nc1ccc(Cl)c(C(=O)O)c1)c1ccc2c(c1)OCO2	0%	-12%
COc1cc2oc(=O)c(CC(=O)NCCc3ccccc3F)c(C)c2cc1OC	6%	8%
O=C(Nc1nsc(-c2ccccc2)n1)c1ccncc1	.	-7%
COc1ccc(N2CCN(C(=O)CCC(=O)NNc3nc4ccccc4c4nc(C)nn34)CC2)cc1	-2%	-5%
CC(=O)c1oc2ccccc2c1NC(=O)CN1CCCCC1	i	-6%
O=C(CN1C(=O)c2ccccc2C1=O)NCC1Cc2cccc(-c3ncccn3)c2O1 (stereo not drawn)	-15%	-13%
Cc1ccc(S(=O)(=O)NNC(=O)C2CCN(Cc3ccccc3)CC2)cc1	-19%	?
Brc1ccc(-n2cc(-c3ccccc3)c3c(NN4CCOCC4)ncnc32)cc1	-5%	-1%
